From PubChem BioAssay
Calb FLC: C. albicans growth modulation with fluconazole; AID 1979; growth inhibition, % (no concentration beside the values); 0.57% of 300,000 active; C. albicans CaCi-2 (fluconazole-resistant clinical isolate) + fluconazole, Alamar Blue growth, 48 h;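 active = most replicates above 75%; inconclusive = exactly half above 75%; inactive = most below 75%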;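 also: all wells also contain fluconazole at 8 µg/ml as a sub-toxic cotreatment; 0% = median of DMSO wells and 100% = median of geldanamycin control wells; wells of about 8 µL received 7.5 nL stock; the first replicate is given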
MLL AF4-AF9 inh: MLL-AF4/AF9 protein interaction inhibition; AlphaScreen, biotin-AF4 peptide binding to FLAG-AF9; 0.47% of 350,000 active; inhibition, % at 10 µM;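 active = every replicate reaching a set inhibition limit, whatever the replicate mean, cut at about 25% in these data; inconclusive = mean inhibition reaches that limit but some replicates miss it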;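 also: 0% = plate neutral control median and 100% = total signal loss; the record names both 10 and 1 µM as test concentration; the first replicate is given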
Target sequence (P42568 whole entry, looked up): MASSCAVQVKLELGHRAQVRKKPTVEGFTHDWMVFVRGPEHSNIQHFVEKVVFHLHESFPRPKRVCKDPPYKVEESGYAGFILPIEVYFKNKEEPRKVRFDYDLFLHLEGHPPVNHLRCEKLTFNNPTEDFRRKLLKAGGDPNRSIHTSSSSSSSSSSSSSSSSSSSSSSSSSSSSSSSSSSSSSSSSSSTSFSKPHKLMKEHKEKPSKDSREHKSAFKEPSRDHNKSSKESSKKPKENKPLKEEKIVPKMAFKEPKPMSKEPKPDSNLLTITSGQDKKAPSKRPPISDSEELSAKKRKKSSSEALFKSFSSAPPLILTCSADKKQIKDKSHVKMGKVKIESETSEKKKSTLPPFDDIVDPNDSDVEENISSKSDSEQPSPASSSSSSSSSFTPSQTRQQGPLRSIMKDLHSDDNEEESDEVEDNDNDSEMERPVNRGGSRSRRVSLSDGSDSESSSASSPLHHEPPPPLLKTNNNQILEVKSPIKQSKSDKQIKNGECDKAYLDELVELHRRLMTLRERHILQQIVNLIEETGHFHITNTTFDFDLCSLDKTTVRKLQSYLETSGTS
LANA-H2B inh: blocks KSHV LANA binding to histone H2A/H2B; cell-free LANA-H2A/H2B peptide, fluorescence polarization; 0.6% of 320,000 active; inhibition, % (concentration not given with the values); AID 2629; in the data active = inhibition mostly above about 10%, no sharp cut-off; inactive = mostly below about 6.7%;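 also: stock transfer was 7.5 nL into about 10 µL; 0% = median of vehicle wells and 100% = median of positive control wells; one replicate is shown; the record names a cut of 25% in any replicate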
A1 inh: inhibitors of the anti-apoptotic protein A1, read as caspase activation | MEF A1-2A-BIM cells, Caspase-Glo 3/7 luminescence, 3 h; percent of clofoctol response, vehicle zero | caspase activation, % (concentration not given with the values) | 0.066% of 330,000 active | AID 2462;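 active = over half of replicate activation scores above 10%, or exactly half above 10 with the replicate mean above 10; inconclusive = replicate mean below 10 yet half the replicates above 10; inactive = over half of replicates below 10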;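 also: wells of about 30 µL received 50 nL stock; many hits fall short of the cut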
Beta cell apopt: blocks beta cell apoptosis. INS-1E cytokine-induced death, ATP luminescence, 48 h; percent of positive-control rescue, neutral wells zero. protection from apoptosis, % (concentration not given with the values). 0.8% of 300,000 active. AID 435005;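 active = all replicates at 75% or more, or half of them and the mean; inconclusive = half reach 75% but not the mean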;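 also: 0% = cytokine-treated negative control wells and 100% = positive control rescue; higher means more ATP so stronger rescue from cytokine killing; wells of about 40 µL received 100 nL stock; the first replicate is given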
T cruzi repl: blocks replication of Trypanosoma cruzi; T. cruzi beta-gal in NIH3T3, luminescence, 90 h; inhibition, % (no concentration beside the values); AID 1885; 1.4% of 300,000 active;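 active = mean inhibition across valid replicates above about 55%, limit read from the data; inconclusive = mean below that limit but half or more replicates reach it; inactive = mean below it, under half of replicates reach it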;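 also: signal also drops with host cell toxicity which is not excluded here; 0% = plate median of DMSO wells and 100% = zero luminescence signal; higher percent means less beta-gal luminescence so fewer parasites; stock transfer was 50 nL into about 50 µL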
RanGTP-Imp inh: disruptors of Ran-importin-beta complex formation – biochemical, FRET, CFP-Ran, YFP-importin-beta, homogeneous, primary screen. cell-free CFP-Ran/YFP-importin-beta FRET ratio. inhibition, % (concentration not given with the values). 1.1% of 300,000 active;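 active = most replicates above 15%; inconclusive = exactly half above 15%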;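 also: 0% = DMSO wells and 100% = Ran loaded with GDP instead of GTP; wells of about 40 µL received 100 nL stock; the first replicate is given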
Vif A3G: HIV-1 Vif–A3G interaction blockers – biochemical, TR-FRET, GST-Vif 1-94, biotin-A3G peptide, dose response retest, primary screen (AID 1117319); TR-FRET GST-Vif / biotin-A3G peptide binding; higher % means a stronger effect; test concentration not given here; strong numbers were not always called active; one-dose inhibition, %; IC50 in µM for titrated hits; 0.57% of 260,000 active;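 active = above the screen mean plus three standard deviations and confirmed in dose response; inconclusive = results disagree or hit not tested in dose response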;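 also: Vif residues 1-94 fused to GST binding biotinylated APOBEC3G peptide 110-148; 0% = full assay without inhibitor and 100% = GST in place of GST-Vif; retest series ran down from 100 µM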
The depositor's hits bear a star; ? = inconclusive; . = no result given; & = joins results of further samples.

SMILES	Calb FLC	MLL AF4-AF9 inh	LANA-H2B inh	A1 inh	Beta cell apopt	T cruzi repl	RanGTP-Imp inh	Vif A3G
COc1ccc(/C=N/N=C2\SCC(=O)N2c2c(C)n(C)n(-c3ccccc3)c2=O)cc1OC	-6	-2.2	-2.2	0.4	.	-15	1.3	.
COc1ccccc1CNC(=O)CN(c1cccc([N+](=O)[O-])c1)S(C)(=O)=O	2	1.0	-1.1	1.3	0	-3	1.5	-11%
Cc1cccc(NC(=O)CNC(=O)COc2ccc(-c3ccc(C#N)cc3)cc2)c1C	-16	.	0.8	-1.5	-1	38	5.6	.
COc1ccc(C(=O)c2cc([N+](=O)[O-])ccc2N2CCCC2)cc1	-4	.	-3.2	-1.9	1	-7	-2.6	2%
N#Cc1c(N2CCCCC2)nc(N2CCCCC2)c2c1CCN(Cc1ccccc1)C2	38	.	0.5	0.4	?	56*	9.0	-3%
O=C(CCCC(=O)N1CCN(c2ccccc2F)CC1)c1ccccc1	15	2.3	-2.1	1.0	-2	5	-1.8	.
Cc1cc(C)n(-c2ccc(Cl)c(C(=O)O)n2)n1	7	.	-0.4	1.1	.	-8	-2.6	13%
CN(C)S(=O)(=O)c1ccc(Cl)c(NC(=O)COC(=O)CCC2CCCCC2)c1	.	1.4	-4.5	0.0	5	.	.	-8%
Cc1ccc(S(=O)(=O)NCC(=O)N(CC(=O)NCc2ccco2)Cc2ccccc2)cc1	2	-3.0	4.5	-0.2	-2	-7	-0.9	-9%
CCN(CC)C(=S)Nc1ccc(OC(F)F)cc1	-5	-2.1	-0.7	0.4	0	-2	-0.7	-12%
NC(=O)[C@@H]1CC2(CC(c3cccc(NC(=O)CC(c4ccccc4)c4ccccc4)c3)=NO2)CN1C(=O)[C@@H]1CCC(=O)N1 (stereo partly drawn)	3	-1.1	-0.7	-0.2	-5	-13	-0.6	16%
Cc1ccc2nc(-c3cccc(S(=O)(=O)N4CCCC4)c3)cn2c1	2	0.3	3.4	-0.2	1	3	-1.0	.
Cc1cccc2cc3cccc(C)c3nc12	-3	-2.5	-2.6	-0.1	-7	-6	3.1	15%
Cc1ccc(S(=O)(=O)Nc2ccc(C(=O)Nc3cc(C)on3)cc2)cc1	4	.	0.0	0.9	0	11	0.1	13%
CCOc1ccccc1N(CC(=O)NC(C)(C)C)C(=O)CCC(=O)Nc1nccs1	7	-10	-1.3	-0.3	.	-6	-0.9	.
CCN=C1SC(CC(=O)NC(N)=O)C(=O)N1CC (stereo not drawn)	-14	.	1.7	-0.2	-5	-4	0.6	1%
CCOc1ccc(S(=O)(=O)N2CCN(Cc3ccc4c(c3)OCO4)CC2)cc1C	-58	-3.4	7.9	-0.9	4	-24	0.5	.
COc1ccc(CN2CCN(C(=O)c3ccc(-c4ccccc4)cc3)CC2)c(OC)c1OC	1	-1.1	-5.3	0.9	5	12	1.0	-5%
O=C(/C=C/c1ccncc1)c1cc(Cl)ccc1O	-8	4.7	-5.1	0.9	9	66*	-0.7	25%
O=C(N[C@H](Cc1ccc(Cl)cc1)C(=O)O)OCC1c2ccccc2-c2ccccc21	26	4.4	-0.9	-1.0	3	-14	3.3	.
Cn1nc(OCCOc2ccccc2)ccc1=O	.	.	-3.9	0.3	6	-16	?	-9%
CC1CCN(CC(=O)NC2CCCCC2)CC1	-5	3.1	7.7	0.3	.	-3	0.9	.
CCOC(=O)c1[nH]cnc1C(=O)Nc1ccccc1OC	2	0.5	-4.7	-0.7	-2	4	2.4	9%
CC(C)N(C(=O)N1CCC(c2nc(-c3ccncc3)no2)CC1)C(C)C	5	.	1.0	0.8	3	-7	-3.5	23%
CCCn1c(NC(=S)Nc2ccccc2)nc2ccccc21	-4	.	1.2	-0.7	43	46	2.5	-18%
O=c1c2ccccc2nnn1CSc1nnc(-c2cccc(S(=O)(=O)N3CCCCC3)c2)o1	12	.	2.7	-0.3	-5	32	1.3	13%&-11%
CCN1C(=O)C(CC(=O)Nc2ccc(OC)cc2)N(CCCN2CCN(c3ccc(OC)cc3)CC2)C1=S (stereo not drawn)	-27	28*	6.8	1.2	4	20	-0.5	-2%
CCCN(Cc1cc2cc(C)ccc2[nH]c1=O)C(=O)c1ccccn1	1	-1.6	2.5	0.5	1	-5	4.5	27%
CC(NC(=O)CCc1c[nH]c2ccccc12)c1ccccc1 (stereo not drawn)	-1	-1.4	-0.5	0.5	-8	-3	-2.8	.
CCc1ccc(NC(=O)CC2NCCNC2=O)cc1 (stereo not drawn)	-5	4.0	0.8	-0.3	2	-20	1.8	0%
CCOc1cc(OCC)cc(C(=O)NC(=S)Nc2cccc(C(F)(F)F)c2)c1	-2	.	-4.9	1.2	-2	-18	-0.6	1%
N#CCCn1nc(Cc2cccc3ccccc23)c(C#N)c1N	3	1.2	1.9	0.4	-2	-13	0.2	.
CN(CC(=O)Nc1ccc(Cl)cc1)C(=O)CNC(=O)c1ccc2ccccc2c1	3	-1.2	0.9	0.3	-1	-9	1.1	.
Cc1ccnc(NC(=O)CCC(=O)N(CC(=O)NCc2ccc(F)cc2)c2cccc(F)c2)c1	-10	0.5	1.1	-0.1	-5	2	-3.7	.
COc1ccc(CN(C)CC(O)COC(c2ccc(OC)cc2)c2ccc(OC)cc2)cc1 (stereo not drawn)	5	16	1.6	1.2	10	7	1.5	.
O=C(CN1CCN(c2ccccc2)CC1)Nc1scc2c1c(=O)oc1ccccc12	3	-5.9	0.5	-0.2	11	9	6.7	.

Full records from above. Order of values: Calb FLC | MLL AF4-AF9 inh | LANA-H2B inh | A1 inh | Beta cell apopt | T cruzi repl | RanGTP-Imp inh | Vif A3G
CN(CC(=O)Nc1ccc(Cl)cc1)C(=O)CNC(=O)c1ccc2ccccc2c1 across the screens: 3 | -1.2 | 0.9 | 0.3 | -1 | -9 | 1.1 | .
N#CCCn1nc(Cc2cccc3ccccc23)c(C#N)c1N across the screens: 3 | 1.2 | 1.9 | 0.4 | -2 | -13 | 0.2 | .

(further entries)
SMILES	Calb FLC	MLL AF4-AF9 inh	LANA-H2B inh	A1 inh	Beta cell apopt	T cruzi repl	RanGTP-Imp inh	Vif A3G
CC1CC(C)(C)NC(=S)N1CC(=O)NCc1ccccc1Cl (stereo not drawn)	4	-1.7	0.1	-0.7	-3	-22	0.7	.
CCn1c(C)nc2cc(C(=O)NNC(=O)CN(C)S(=O)(=O)c3ccc(NC(C)=O)cc3)ccc21	.	-0.4	1.9	?	-7	.	.	.
CC(=O)Nc1ccc(S(=O)(=O)Nc2nc3ccccc3nc2Nc2cccc(S(N)(=O)=O)c2)cc1	-1	2.8	4.2	1.3	-5	-3	2.6	0%
COc1ccc(CNC(=O)C2CCCN(c3nccc(C)n3)C2)cc1 (stereo not drawn)	4	.	-6.6	-0.7	4	-7	-0.8	-3%
NC1=NN=C(c2ccc3c(c2)OCCO3)CS1	10	-1.7	4.9	-6.0	-4	5	-1.0	23%
CC(C)Oc1ccc(Cn2c(-c3ccco3)n[nH]c2=S)cc1	1	.	4.8	0.3	-1	3	-1.2	-15%
COc1ccc(OCc2nnc(SCC(=O)NNC(=O)c3ccc(C)cc3)n2C)cc1	-1	-2.4	-5.2	0.0	-5	-14	4.6	-5%
CN(C)CCCNc1cc(O)c2ncccc2c1	.	76*	4.8	0.4	2	.	.	.
CN(C)S(=O)(=O)c1ccc(N2CCCC2)c(C(=O)NC2CCCCC2)c1	0	-0.1	-0.1	0.2	.	-5	-0.1	3%
COc1ccccc1C1C2=C(CC(C)(C)CC2=O)Nc2nnnn21 (stereo not drawn)	5	.	3.6	0.6	-9	12	-6.5	.
COc1ccc(S(=O)(=O)Cc2ccc(C(=O)NCc3ccccc3)o2)cc1	-4	2.0	-4.8	-1.2	-1	12	2.0	.
CC1Cc2ccccc2N1C(=O)CSc1nnc2c(n1)[nH]c1ccc(F)cc12 (stereo not drawn)	-3	.	-3.2	0.1	9	1	5.7	-11%
NCCCC[C@@H]1NC(=O)c2cc([N+](=O)[O-])cc(I)c2SC[C@@H](C(=O)NCC(N)=O)NC(=O)CNC1=O	9	.	-1.7	-0.3	0	-24	-1.2	-14%
Nc1ccc2nc(CN3CCOCC3)[nH]c2c1	11	.	-0.2	-0.5	-1	-11	8.6	1%
CN1/C(=C/C=N/n2cnnc2)C(C)(C)c2ccccc21	-9	.	-4.6	0.3	-2	0	0.0	2%
CCc1ccc(C(=O)NNc2ccc(Cl)cc2)cc1	0	1.7	-0.5	0.0	29	28	1.1	7%
COc1cc(-c2c(C#N)c(N)nc3c2c(C)nn3-c2ccc(C)c(C)c2)cc(OC)c1OC	8	.	-4.0	-0.2	14	45	3.8	7%
COc1ccc2c(c1)CC(C)C/C2=N\NC(=O)c1ccco1 (stereo not drawn)	6	1.3	-8.8	0.3	-4	0	1.8	1%
N#Cc1ccc(C23CC4(C2)[C@H](CN(Cc2cccnc2)[C@@H]4c2ccccc2)C3c2ccccc2)cc1 (stereo partly drawn)	3	0.9	-0.6	-0.3	15	26	-1.8	?
CSc1nnc(NC(=O)c2cc(=O)c3cc(C)cc(C)c3o2)s1	31	-1.8	1.2	-1.1	2	-6	-2.7	8%
CC(=O)OC(C(=O)N1CCN(c2ccc(F)cc2)CC1)c1ccccc1 (stereo not drawn)	-7	.	0.1	0.5	-10	4	-1.0	-12%
CCNC(=S)Nc1ccc(OCc2nc3ccccc3s2)cc1	-1	-3.7	0.6	-1.4	12	5	-1.0	.
COc1ccc(CN(Cc2ccccn2)S(=O)(=O)c2ccc(-n3cnnn3)c(OC)c2)cc1	10	-3.2	3.6	-0.2	1	25	3.1	-6%
CCSc1nc2c(c(=O)n(C)c(=O)n2C)n1Cc1ccc(Cl)cc1	-3	.	7.2	0.5	9	3	0.1	0%
CCOC(=O)N1CCN(C(=O)/C(=C/c2cccs2)NC(=O)c2ccc(OC)c(OC)c2)CC1	-7	-3.3	1.6	-0.4	4	-10	3.8	.
CC(=O)N1c2ccc(S(=O)(=O)NCCC(=O)NCCc3ccc(C)cc3)cc2CC1C (stereo not drawn)	-11	-5.5	-2.2	0.4	.	-4	4.5	1%
Cc1cc(NC(=O)c2ccc(COc3ccccc3Cl)o2)no1	-5	-0.6	3.9	-0.3	3	16	1.0	11%
CNc1nc(C)nc(-c2ccccc2O)n1	16	5.6	-2.6	-0.8	-7	-17	-2.5	-15%
CCOC(=O)C1=C(Cn2cnc3ccccc32)NC(=O)NC1c1cc(C)ccc1C (stereo not drawn)	13	.	-3.5	-0.2	.	-29	4.9	1%
COc1ccc(C(=O)NCC(c2ccco2)N2CCc3ccccc32)c(OC)c1 (stereo not drawn)	0	0.2	-3.1	0.9	5	18	-3.3	3%
CCc1[nH]c(=O)c(C#N)c2c1CCCC2	1	.	-2.9	2.1	0	-16	6.4	-2%
Cc1oc2cc([N+](=O)[O-])c(O)c([N+](=O)[O-])c2c1C(=O)c1ccc(Br)cc1	.	1.4	-12	-0.4	7	10	.	.
COc1cc(NC(=O)c2ccc(Cl)cc2)c(OC)cc1NC(=O)CN1CCOCC1	-4	.	-1.1	0.9	-1	6	5.2	22%
COc1ccc(OC)c(-c2csc(NC(=O)CSc3ccc(Br)cc3)n2)c1	-37	0.4	4.6	0.1	-3	7	-2.3	.
